# TRPML1 agonist = human mucolipin-1 channel agonism; TRPML1-expressing cells, Ca2+ dye fluorescence, FDSS; host cell line not named in the record; reference of the full effect not given here; 0.12% of 410,000 active; AID 624414; activation, % (no concentration beside the values); Q9GZU1; in the data active = activation above about 50%; inconclusive = about 30% to 50%; inactive = below about 30%; also: 0% is about no effect; the text of the record puts the active cut at 80%
# Target sequence (Q9GZU1 whole entry, looked up): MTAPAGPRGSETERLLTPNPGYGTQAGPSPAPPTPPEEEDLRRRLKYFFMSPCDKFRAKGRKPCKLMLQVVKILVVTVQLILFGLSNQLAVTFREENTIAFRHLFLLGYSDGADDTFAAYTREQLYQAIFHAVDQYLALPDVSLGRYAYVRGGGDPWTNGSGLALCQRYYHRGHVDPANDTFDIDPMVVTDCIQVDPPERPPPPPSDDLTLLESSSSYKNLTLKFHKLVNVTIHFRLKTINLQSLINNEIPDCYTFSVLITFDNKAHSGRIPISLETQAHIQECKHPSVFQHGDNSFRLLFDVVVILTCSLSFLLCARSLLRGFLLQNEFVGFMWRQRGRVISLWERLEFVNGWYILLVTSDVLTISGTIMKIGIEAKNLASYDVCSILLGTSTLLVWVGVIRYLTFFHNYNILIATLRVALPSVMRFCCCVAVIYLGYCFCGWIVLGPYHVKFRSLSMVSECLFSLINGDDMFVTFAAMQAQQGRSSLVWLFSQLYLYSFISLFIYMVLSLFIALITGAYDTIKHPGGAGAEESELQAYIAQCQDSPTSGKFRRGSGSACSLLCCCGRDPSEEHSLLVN
#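 Agonist activity was taken from a 110 s kinetic Ca2+ dye read on the FDSS after pinning compounds onto TRPML1-DL cells. The cells were seeded at 1,500/well with Tet inducer, incubated about 16 h, then dye-loaded at room temperature.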
# Menin MLL FP FL = inhibitors of human menin-MLL interaction, wild-type MLL peptide | Fluorescence polarization, fluorescein-MLL peptide displacement from menin | FP activity change, % at 61.4 µM | 290,000 tested, under 10 active; inconclusive = falling polarisation curve, or a change in total fluorescence; inactive = total fluorescence flat and polarisation flat or rising; no compound was filed as active; the % refers to the polarisation; negative = inhibition;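 also: % of control where 0% means no effect; inhibitors lower the polarisation; unlabelled MLL peptide was the positive control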
# TRPV1 PAM = potentiators of human vanilloid receptor 1 (TRPV1); Q8NER1; TRPV1-expressing cells, Fluo-8 calcium influx, capsaicin EC20 potentiation; host cell line not named in the record; control for the full effect not named in the record; potentiation, % at 8.33 µM; 0.02% of 320,000 active; AID 540277; active means potentiation above 80%; inconclusive means 30% to 80%; inactive means below 30%; also: 0% is about no effect
#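 TRPV1-expressing cells were cultured overnight at 35.5C and loaded with Fluo-8 calcium dye for 40 to 90 min at room temperature. After a 10 s baseline, compound was added and calcium influx was read kinetically for 3 min (ex 480/em 520 nm).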
# ClpP mod = qHTS Assay for Activators of ClpP. purified B. subtilis ClpP, FRET peptide cleavage, 20 min. Potency, µM (top dose mostly 57.5 µM), for the others: at the top dose activity change, negative = active. 1.9% of 340,000 active; active = well fitted falling curve with a large enough effect; inconclusive = small, poorly fitted or top-dose-only effect; inactive = no such curve, though single readings can be large or run the other way; also: potency is read from the fitted curve at half-maximal effect; the source files actives as falling curves though it sought activators and does not explain the sign; nearly all actives have a fitted effect of over 65% in size; many hits overshoot -100%
# Target sequence (P80244 whole entry, looked up): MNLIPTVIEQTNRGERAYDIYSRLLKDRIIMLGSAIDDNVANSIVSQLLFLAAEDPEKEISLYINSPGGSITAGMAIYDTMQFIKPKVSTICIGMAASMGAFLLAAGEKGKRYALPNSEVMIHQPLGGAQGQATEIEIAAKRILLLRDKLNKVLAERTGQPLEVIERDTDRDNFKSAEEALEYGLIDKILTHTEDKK
#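 Buffer: 100 mM Tris/HCl pH8, 100 mM KCl, 0.05% low protease BSA, 2.5% glycerol, 0.01% Tween-20. ClpP 10 microg/mL final; 20 min RT; delta FRET normalized to ADEP and DMSO controls.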
# TRPML1 inh = inhibitors of human TRPML1 channel; 0.02% of 390,000 active; TRPML1-inducible cells, Ca2+ dye fluorescence, FDSS; active compounds read low; inhibition of EC80 agonist-evoked calcium signal; activity change, negative = inhibition, % (no concentration beside the values); AID 624415; Q9GZU1; in the data active means activity change below about -50%; inconclusive means about -30% to -50%; inactive means above about -30%;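 also: stimulus is agonist 54-4 at its EC80 concentration; % is scaled to controls: 0 for no effect and ±100 for the full control effect; compound concentration not given in the record; the text of the record puts the active cut at -80%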
#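 TRPML1-DL cells, Tet-induced overnight (~16 h, 37 °C) at 1,500 cells/well, were loaded with Ca8 no-wash dye plus quencher for 45-90 min at room temperature. Compounds were pinned during FDSS kinetic reading; agonist 54-4 at EC80 (4 uM final) then added.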
# PINK1 modulator = changes PINK1 expression | PINK1 immunofluorescence, high-content cytometry, 24 h | Potency, µM (doses to about 76.6 µM), for the others: at the top dose activation (PINK1 increase), hits mostly activators | 0.2% of 410,000 active | AID 624263; active = well fitted activation curve with a large enough effect; inconclusive = small, poorly fitted or top-dose-only effect; inactive = flat fitted curve, though single readings scatter; cell line not stated here;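 also: potency is read from the fitted curve at half-maximal effect; % of control where 0% means no effect; nearly all actives have a fitted effect of over 65% in size; a mitochondrial uncoupler was the plate control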
#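 PINK1 protein, normally rapidly degraded, was detected by immunofluorescence after 24 hour compound treatment of a stable cell line. Titration data (5 concentrations) came from laser-scanning cytometry, with CCCP-treated wells as controls.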
# Sfp inh = blocks B. subtilis Sfp PPTase activity. Biochemical Sfp PPTase activity, qHTS. Potency, µM, for inactives: max response, negative = inhibition, hits mostly inhibitors. Q9F4F7. AID 1490. 3.5% of 310,000 active; active = well fitted inhibition curve with a large enough effect; inconclusive = small, poorly fitted or top-dose-only effect, or another doubt; inactive = no such curve, though single readings can be large or run the other way;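 also: the enzyme is Sfp with the accession as filed and its product quenches rhodamine fluorescence; potency is read from the fitted curve at half-maximal effect; 0% = enzyme reaction without inhibitor and -100% = no enzyme wells; top concentration of the series not given in the record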
#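 Reaction rates are the 30-min fluorescence difference (ex 525, em 598 nm) in wells containing 15 nM Sfp, 5 uM rhodamine-CoA and 12.5 uM BHQ-2-YbbR at pH 7.6 with 10 mM MgCl2.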
# Starred values were filed as active, the others as inactive; ? = inconclusive; / = not tested or not shown; [ ] = remark or other dose.
# Order of results: TRPML1 agonist	TRPV1 PAM	Menin MLL FP FL	PINK1 modulator	Sfp inh	TRPML1 inh	ClpP mod
> Cc1cccc2cc(COC(=O)COc3ccccc3)c(=O)[nH]c12
    0.3	4.7	1.7	-1.5%	10.3%	-9.5	-11.0%
> CCn1c(SCC(=O)NC(=O)NCc2ccco2)nc2sc(C)c(C)c2c1=O
    0.9	9.6	13.6	2.6%	25.1µM*	15.1	-8.6%
> COc1ccc(C(=O)Oc2cc(/C=N/NS(=O)(=O)c3ccccc3)ccc2OC)cc1
    1.4	4.6	1.9	-0.2%	36.4%[activator]	6.2	1.2%
> CC1=NN(C(N)=S)C(=O)C1N=Nc1ccccc1Cl (configuration not stated)
    0.9	12.8	-1.8	4.2%	-5.5%	-7.1	0.8%
> COc1ccc(-c2cc(=O)c(C(=O)c3ccc(C)cc3)n[nH]2)cc1
    0.3	-1.3	0.2	1.8%	-8.3%	-5.7	/
> Cc1cc(C)cc(NC(=O)COc2ccc(C(=S)N3CCOCC3)cc2)c1
    1.7	7.0	1.0	4.7%	6.0%	8.6	/
> CC(Sc1ccccc1)C(=O)NNC(=O)c1ccncc1 (configuration not stated)
    0.1	19.2	/	0.3%	/	-13.8	-2.0%
> Cc1ccc(NS(=O)(=O)c2ccc3c(c2)OCCCO3)cc1S(=O)(=O)N1CCOCC1
    0.4	-1.8	/	-0.7%	/	-9.3	0.3%
> O=C(CNC(=O)c1ccccc1F)Nc1ccccc1C(F)(F)F
    -0.9	5.4	-4.9	0.2%	19.9%	-8.8	/
> CCN1CCN(S(=O)(=O)c2ccc(Cl)c(C(=O)NCCc3ccccc3)c2)CC1
    1.5	10.8	/	-0.7%	/	2.6	/
> COc1ccccc1CNC(=O)CS(=O)(=O)c1cccc2nsnc12
    0.9	/	/	-3.1%	/	5.4	-0.4%
> Cc1ccc(-c2[nH]nc3c2C(c2cccnc2)C(C#N)=C(N)O3)cc1 (configuration not stated)
    1.0	-11.4	-0.1	7.1%[38.3 µM]	-1.5%	18.9	-0.4%
> CC[C@]12c3[nH]c4ccc(Cl)cc4c3CCN1C(=O)[C@@H](CC(=O)NCCCN(C)C)C[C@@H]2C(=O)N1CCN(C(=O)c2ccco2)CC1
    -0.1	/	/	1.8%	/	-9.0	-2.8%
> CCCN1C(=O)c2cc(C(=O)NCc3ccc(OC)cc3)ccc2C1O (configuration not stated)
    0.1	1.4	2.8	1.5%	-11.9%	-6.9	0.4%
> CCOC(=O)C1=CN(Cc2cccc(Br)c2)S(=O)(=O)N(CC)C1C (configuration not stated)
    0.7	/	/	1.1%	/	7.0	1.6%
> CCCC(=O)Nc1c(-c2cccs2)c(=O)c2ccccc2n1C
    1.2	-3.2	1.0	4.5%[38.3 µM]	1.5%	-10.4	-1.6%
> Cc1c(Cc2ccccc2)c(=O)oc2cc(OCC(=O)N3CCC(C(N)=O)CC3)ccc12
    /	-1.1	-1.2	2.6%	5.1%	/	4.7%
> COc1cccc(N2CC(C(=O)Oc3ccc4ccccc4c3)CC2=O)c1 (configuration not stated)
    0.4	4.7	3.9	-3.4%	-4.9%	13.2	67.1%
> CC(=O)NC(CC(=O)NCC(c1ccco1)N(C)C)c1ccccc1 (configuration not stated)
    0.2	-11.4	-2.8	-0.4%[38.3 µM]	-1.8%	0.9	-2.6%
> CCNC(=O)NC(=O)C(C)Sc1nc2cc(C(=O)OC)ccc2c(=O)n1-c1ccccc1 (configuration not stated)
    0.2	-4.2	2.8	4.6%	18.2%	32.0	-22.9%
> O=C(Nc1cccc(-c2nnco2)c1)c1cccs1
    -0.8	1.3	1.9	3.1%	23.8%	36.6	1.7%
> CCOC(=O)C1(CCOc2ccccc2)CCN(Cc2cnc(C)[nH]2)CC1
    -0.4	3.2	-0.7	-0.9%	16.5%	4.2	/
> O=C(c1ccc2c(c1)OCO2)N(CC1CCCO1)C1(C(=O)NC2CCCC2)CCCCC1 (configuration not stated)
    -1.0	-6.0	0.1	0.1%	-12.7%	6.2	-1.5%
> O=C(OCC(=O)N1CCc2ccccc21)c1nc(Cl)ccc1Cl
    1.2	5.9	0.4	1.1%	-0.1%	-1.9	-1.9%
> CCOc1ccccc1CNC(=O)c1nc(-c2ccc(Cl)cc2)n2c1CCCCC2
    3.3	/	/	0.5%	/	15.8	?
> Cc1cc(C(=O)OCC(=O)Nc2cc(Cl)ccc2C)c(C)o1
    0.1	18.8	/	19.3%	/	-5.6	-3.0%
> c1ccc2c(c1)nc(NCCN1CCOCC1)c1nncn12
    -0.8	-11.7	-2.5	-0.5%	-0.7%	23.1	-5.8%
> CC(O)CCC(=O)NNC1=CC(=O)CC(C)(C)C1 (configuration not stated)
    /	-8.0	-3.5	/	17.6%	/	/
> CCc1cccc(NC(c2nnc(-c3ccccc3)o2)c2ccc(F)cc2Cl)c1 (configuration not stated)
    2.1	/	/	16.9%	/	-14.3	-0.8%
> Oc1ccc[n+](CCCCC[n+]2cccc(O)c2)c1
    0.1	0.0	-0.7	-0.6%	-3.0%	10.0	?

# Profiles as entered above. Order of values: TRPML1 agonist, TRPV1 PAM, Menin MLL FP FL, PINK1 modulator, Sfp inh, TRPML1 inh, ClpP mod
# O=C(Nc1cccc(-c2nnco2)c1)c1cccs1 is listed with -0.8, 1.3, 1.9, 3.1%, 23.8%, 36.6, 1.7%
# CCCC(=O)Nc1c(-c2cccs2)c(=O)c2ccccc2n1C is listed with 1.2, -3.2, 1.0, 4.5%[38.3 µM], 1.5%, -10.4, -1.6%

# More compounds follow.
# Order of results: TRPML1 agonist	TRPV1 PAM	Menin MLL FP FL	PINK1 modulator	Sfp inh	TRPML1 inh	ClpP mod
> CCCOc1cccc(C2C(C(=O)c3ccc(C)o3)=C(O)C(=O)N2CCN2CCOCC2)c1 (configuration not stated)
    -0.7	-2.2	6.5	-1.3%	1.5%	16.5	-1.3%
> CCOC(=O)c1cnn2c1[nH]c(=O)c1ccccc12
    0.7	7.9	5.8	-2.7%	19.5%	8.9	3.55µM*
> CCC(C)c1ccccc1NC(=O)COc1ccc(-n2cnnn2)cc1 (configuration not stated)
    0.4	15.7	/	-1.1%	/	-24.1	-2.9%
> O=C(NCc1ccccc1F)Nc1ccc([N+](=O)[O-])cc1
    -0.5	-3.1	-1.3	-1.6%	10.9%	9.6	0.0%
> O=C(Oc1ccc2ccccc2c1)c1ccccc1
    -0.6	9.6	1.2	0.4%[38.3 µM]	12.6%	-8.0	-0.3%
> Nc1ccccc1OCCOc1ccccc1N
    -0.6	-7.6	-1.3	4.4%	2.8%	-10.7	0.7%
> COc1ccc(N2C(=O)CC(NCc3ccc(F)cc3)C2=O)cc1 (configuration not stated)
    0.6	-4.6	2.8	0.8%	11.0%	23.9	0.1%
> Cc1ccc(S(=O)(=O)C(C#N)c2nc3ccccc3nc2N2CCN(C)CC2)cc1C (configuration not stated)
    2.3	-4.7	-0.1	/	-0.3%	-9.0	-13.8%
> CC(=O)Nc1cccc(N(C)C)c1
    0.8	4.3	-3.2	-0.3%	-5.7%	-4.5	-3.0%
> O=C(COC(=O)/C=C/c1ccc(OC(F)F)cc1)NCc1cccs1
    0.7	-29.7	6.0	8.6%	7.1%	-3.7	-6.2%
> CCOC(=O)C1(C(=O)OCC)NC(=O)CC1CC (configuration not stated)
    0.1	/	/	1.5%	/	15.8	2.9%
> O=C(NCCc1ccccn1)c1ccc(OC(F)F)cc1
    0.6	-8.1	-6.6	3.8%	13.6%	12.4	/
> CC(=O)Nc1ccc(S(=O)(=O)NC2(C(F)(F)F)C(=O)Nc3c2c(=O)[nH]c(=O)n3Cc2ccco2)cc1 (configuration not stated)
    -0.3	-1.9	3.3	1.2%	10.0%	4.7	/
> O=C(N/N=C/C=C/c1ccco1)/C(=C/c1ccccc1)NC(=O)c1ccccc1
    -0.3	20.8	7.0	3.7%	44.7µM*	-13.4	0.5%
> COc1ccc(OCc2cccc(C(=O)Nn3cc([N+](=O)[O-])cn3)c2)cc1
    -1.0	-21.6	-2.4	4.7%	-6.0%	35.1	0.3%
> COC(=O)c1ccc(NC(=O)CCNS(=O)(=O)c2cccc3nonc23)cc1
    0.0	0.8	2.8	4.8%	1.3%	-3.8	0.6%
> COc1ccc(Cl)cc1NC(=O)CN(C)C(=O)CN1C(=O)NC(C)(c2ccc3ccccc3c2)C1=O (configuration not stated)
    2.9	/	/	-0.7%	/	31.3	-4.5%
> CCOC(=O)C(CCCOc1ccccc1)C(=O)OCC
    -1.8	-8.4	-0.4	-1.0%	12.0%	-2.9	0.5%
> COc1ccc2c(c1OC)C(=O)OC2
    -0.1	9.3	6.0	1.2%	11.3%	2.6	4.2%
> S=C(Sc1ccc(Cl)cc1)Sc1ccc(Cl)cc1
    /	-2.1	1.1	/	?	/	/
> O=C(O)C1CCCCC1C(=O)Nc1ccccc1C(=O)N1CCN(c2ccc(F)cc2)CC1 (configuration not stated)
    1.3	1.2	-3.8	-0.6%	-0.8%	2.2	-4.5%
> CC1Cc2ccccc2N1CC(=O)NCc1ccccc1Cl (configuration not stated)
    0.3	7.7	-0.3	-1.4%	9.4%	1.5	0.1%
> O=c1[nH]c2ccccc2nc1-c1c[nH]c2ccccc12
    /	9.0	-5.5	15.9%	17.9%	/	3.4%
> COc1ccc(Nc2cc(C(=O)NCCCN(C)c3ccccc3)c3ccccc3n2)c(OC)c1
    1.8	/	/	2.4%	/	7.3	-0.6%
> COCCCNC(=O)CN1C(=O)COc2ccc(S(=O)(=O)N3CCCC3)cc21
    -0.3	/	/	-0.4%	/	-9.1	0.4%
> CC1CN(C(=O)Nc2cccc(Cl)c2)C2(CCCCCC2)O1 (configuration not stated)
    0.1	-13.7	5.5	0.1%	6.7%	-11.2	-1.7%
> O=C(NC(=S)Nc1ccc(S(=O)(=O)Nc2ncccn2)cc1)c1cccc(Br)c1
    2.1	-12.8	0.1	-1.5%	-15.2%	10.5	/
> COc1ccc(-c2nn(CCC#N)cc2C(=O)Nc2ccccn2)cc1OC
    0.4	5.1	-2.4	-0.5%	-2.4%	-3.2	/
> CC(C)CN1C(=O)C(=O)N(CC(=O)Nc2cc(Cl)ccc2Oc2ccccc2)C1=O
    -0.1	-0.1	3.8	1.2%	1.9%	-0.2	/
> O=C(NCc1ccncc1)c1ccc(-c2ccc(F)c(F)c2)c2ccoc12
    -0.4	/	/	2.1%	/	/	4.3%

# From PubChem BioAssay
